# PINK1 modulator = A Quantitative High throughput Screen to Identify Chemical Modulators of PINK1 Expression; 410,000 compounds, 0.2% hits; PINK1 immunofluorescence, high-content cytometry, 24 h; Potency, µM (top dose mostly 76.6 µM), without a hit: at the top dose activation (PINK1 increase), usual class: activators; active = well fitted activation curve with a large enough effect; inconclusive = small, poorly fitted or top-dose-only effect; inactive = flat fitted curve, though single readings scatter; cell line not stated here;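 further: potency means the concentration at half of the fitted maximal effect; % of control where 0% means no effect; nearly all actives have a fitted effect of over 65% in size; a mitochondrial uncoupler was the plate control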
#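 Compound titrations (5 concentrations, 24 h) on a stable cell line; DMSO and CCCP controls. Endpoint: fixed-cell PINK1 immunofluorescence with mitochondrial, cell and nuclear markers, scanned by microplate cytometer.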
# CtBP-E1A inh = qHTS Assay for Inhibitors of the CtBP/E1A Interaction; CtBP / adenovirus E1A interaction (AlphaScreen); AlphaScreen GST-E1A/His-CtBP binding, 1536-well; stronger effect = lower value; control for the full effect not named in the record; activity change, % (no concentration beside the values); 340,000 compounds, 0.49% hits; in the data active means activity change below about -65%; inconclusive means about -30% to -65%; inactive means above about -30%; further: on the % scale 0 is the no-effect control and ±100 the full control effect
#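 Homogeneous bead-based format: GST-tagged E1A captured on glutathione donor beads, His-tagged CtBP on nickel acceptor beads; compounds precede bead addition by 2 h at 37 °C.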
# D2 PAM = Beta-Arrestin HTS for Positive Allosteric Modulators of the Human D2 Dopamine Receptor: Potentiators; DiscoveRx D2 beta-arrestin cells, luminescence, 90 min; 100% = 57 uM dopamine signal; 360,000 compounds, 0.23% hits; D(2) dopamine receptor (Homo sapiens), P14416; potentiation, % (no concentration beside the values); active = potentiation of 50% or more; inconclusive = 30% to 50%; inactive = 30% or less;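 further: compound concentration not given in the record; tested on top of an EC20 dose of dopamine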
# Target sequence (P14416 whole entry, looked up): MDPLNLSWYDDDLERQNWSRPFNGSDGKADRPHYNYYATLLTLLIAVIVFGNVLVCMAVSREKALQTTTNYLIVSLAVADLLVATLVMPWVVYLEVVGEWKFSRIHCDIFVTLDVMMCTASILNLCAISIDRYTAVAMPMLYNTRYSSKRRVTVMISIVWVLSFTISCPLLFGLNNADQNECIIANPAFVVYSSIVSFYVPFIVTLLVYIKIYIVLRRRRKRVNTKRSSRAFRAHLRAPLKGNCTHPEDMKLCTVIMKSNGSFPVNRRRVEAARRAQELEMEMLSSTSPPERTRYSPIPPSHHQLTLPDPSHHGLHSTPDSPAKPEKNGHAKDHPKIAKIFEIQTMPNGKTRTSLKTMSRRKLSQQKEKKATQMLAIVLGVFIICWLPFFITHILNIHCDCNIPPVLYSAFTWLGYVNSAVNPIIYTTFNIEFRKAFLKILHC
#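 D2 cells co-treated with compound plus 50 nM dopamine (EC20) for 90 min at 37 deg C to detect potentiation. Beta-arrestin recruitment was read as enzyme-fragment luminescence after 1 h at ambient temperature. Full response was set by 57 uM dopamine.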
# D2 ag = Beta-Arrestin HTS for Positive Allosteric Modulators of the Human D2 Dopamine Receptor: Agonists | D(2) dopamine receptor (Homo sapiens), P14416 | DiscoveRx PathHunter D2 beta-arrestin, luminescence, 90 min; 100% = 57 uM dopamine signal | activation, % (concentration not given with the values) | 360,000 compounds, 0.084% hits | AID 624465, 2012; in the data active = activation above about 40%; inconclusive = about 15% to 40%; inactive = below about 15%; further: the text of the record calls up to 30% inactive
#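 Agonist mode: compounds alone added to overnight-plated D2 PathHunter cells for 90 min at 37 C, with 57 uM final dopamine (EC100) defining full response. Beta-arrestin recruitment detected by chemiluminescent reagent, read after 1 h at ambient temperature.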
# Sfp PPTase inh = qHTS Assay for Inhibitors of Bacillus subtilis Sfp phosphopantetheinyl transferase (PPTase). Biochemical Sfp PPTase activity, qHTS. Potency, µM, for the others: max response, negative = inhibition, actives largely listed as inhibitors. 310,000 compounds, 3.5% hits. AID 1490, 2009; active means well fitted inhibition curve with a large enough effect; inconclusive means small, poorly fitted or top-dose-only effect, or another doubt; inactive means no such curve, though single readings can be large or run the other way;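 further: the enzyme is Sfp with the accession as filed and its product quenches rhodamine fluorescence; potency means the concentration at half of the fitted maximal effect; 0% = enzyme reaction without inhibitor and -100% = no enzyme wells; top concentration of the series not given in the record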
#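 Reaction rates are the 30-min fluorescence difference (ex 525, em 598 nm) in wells containing 15 nM Sfp, 5 uM rhodamine-CoA and 12.5 uM BHQ-2-YbbR at pH 7.6 with 10 mM MgCl2.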
# Six1-Eya2 blk = qHTS Assay for Inhibitors of the Six1/Eya2 Interaction; Homeobox protein SIX1 (Homo sapiens) + Protein phosphatase EYA2 (Homo sapiens), …; AlphaScreen GST-Six1/His-Eya2 binding, biochemical; stronger effect = lower value; control for the full effect not named in the record; activity change, % (test concentration not listed); 360,000 compounds, 0.56% hits; in the data active = activity change below about -65%; inconclusive = about -30% to -65%; inactive = above about -30%; further: on the % scale 0 is the no-effect control and ±100 the full control effect
#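 GST-Six1 + His-Eya2 (5X stock: 250/500 nM); Tris pH 8.0, 300 mM NaCl, 0.05% BSA, 0.02% Tween 20; GSH donor/Ni acceptor beads; 1 h 37 °C dark; AlphaScreen readout.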
# TRPV1 PAM = HTS Assay for Compounds that Act as Potentiators of the Vanilloid Receptor 1. AID 540277, 2011. Transient receptor potential cation channel subfamily V member 1 (Homo sapiens), Q8NER1. potentiation, % at 8.33 µM. TRPV1-expressing cells, Fluo-8 calcium influx, capsaicin EC20 potentiation; host cell line not named in the record; control for the full effect not named in the record. 320,000 compounds, 0.02% hits; active means potentiation above 80%; inconclusive means 30% to 80%; inactive means below 30%; further: 0% is about no effect
#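 TRPV1-expressing cells were cultured overnight at 35.5C and loaded with Fluo-8 calcium dye for 40 to 90 min at room temperature. After a 10 s baseline, compound was added and calcium influx was read kinetically for 3 min (ex 480/em 520 nm).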
# Numbers without * were called inactive; u = inconclusive; x = not tested or not shown; & = joins results of further samples; [ ] = another dose, or the depositor's remark. Outcome played no part in choosing rows (roughly 3.7% active in at least one column).
mol,D2 PAM,TRPV1 PAM,D2 ag,CtBP-E1A inh,PINK1 modulator,Six1-Eya2 blk,Sfp PPTase inh
Cc1cc(NC(=O)c2c(F)cccc2Cl)no1,5.2,18.6,2.4,5.2,1.8%,8.8,12.6%
O=C(CC12CC3CC(CC(C3)C1)C2)NC(=S)NCc1ccco1,0.7,-8.3,-0.2,-0.9,7.3%,-1.1,-6.7%
O=C(CCc1ccccc1)NNC(=O)c1ccncc1,8.8,x,1.2,x,-0.2%,5.0,x
CCCCCCc1cc2cc(S(=O)(=O)c3ccc(Cl)cc3)c(=O)oc2cc1O,3.3,5.2,1.7,16.4,u,19.8,2.3%
CC(OC(=O)c1cc(Br)ccc1O)C(=O)NCc1ccc2c(c1)OCO2 (stereo not given),-5.3,-8.6,-2.2,12.7,6.3%,-3.9,x
CCOC(=O)C1(C)CCCN(C(=O)c2ccc(OC)cc2)C1 (stereo not given),-6.7,x,2.9,-8.7,1.0%,7.9,x
CNC[C@H]1Oc2cc(Br)ccc2S(=O)(=O)N([C@@H](C)CO)C[C@H]1C,-2.6,x,-4.4,8.4,0.5%,7.7,x
O=[N+]([O-])c1ccc(S(=O)(=O)Nc2ccc(-c3ccccc3)cc2)cc1,-9.3,x,u,-6.8,u,-19.3,x
Cn1ncc2c(NNC(=O)Cc3cccc4ccccc34)ncnc21,-19.2,-14.5,-3.4,-3.6,0.6%,-1.5,6.7%
CCN1CCc2c(OCC(=O)N3N=C(c4cccs4)CC3c3ccc(F)cc3)cccc2C1=O (stereo not given),-13.5,4.8,-2.2,-12.2,0.2%,-17.1,u
Cc1ccc(C)c(NC(=S)c2ccccn2)c1,1.6,14.0,-6.4,-67.3*,-0.3%,u,-19.3%
Cc1ccc(C(=O)NCCc2cccs2)cc1,-6.7,-11.9,-5.8,3.1,-0.9%,2.8,18.8%
COc1ccc(OC)c(/C(C)=N\NC(=O)c2cc3cc(Cl)ccc3n2C)c1,-5.0,-0.2,-0.7,x,3.5%,-5.8,-5.8%
CN(CC(=O)Nc1c(Cl)cccc1Cl)C(=O)c1ccccc1-c1nc2ccccc2s1,4.3,-5.8,-2.6,-1.7,-2.1%,-3.0,x
C1=CC2CC1CC2CNCc1ccco1 (stereo not given),-4.6,4.2,-3.4,0.0,0.0%,23.0,9.7%
COC(=O)CN1C(=O)[C@H]2[C@@H](C3CC3)N3C(=O)CN(Cc4ccc(-c5ccccc5)cc4)C(=O)[C@@]3(Cc3ccccc3)[C@H]2C1=O,-9.2,-23.1,-2.7,-0.4,0.1%,-4.7,13.0%
COc1ccc(C2CC(=O)C=C(NCC3CCCO3)C2)cc1 (stereo not given),-2.9,9.0,-0.4,1.9,0.6%,1.6,11.6%
O=C(O)CSCc1ccc(C(=O)O)o1,-5.0,-4.6,-2.5,9.0,x,0.8,-25.0%
O=C(O)c1ccc(N/N=C/c2cc3cc4c(cc3nc2Cl)OCCO4)cc1,-8.5,-3.0,0.0,-11.6,1.0%,7.0,3.0%
Cn1c(N)c(N=Nc2ccc(S(N)(=O)=O)cc2)c(=O)n(C)c1=O,-18.3,26.8,-5.1,x,-0.7%,2.8,-3.2%
CCOC(=O)C1CCCN(C(=O)c2ccccc2NC(C)=O)C1 (stereo not given),-1.7,2.5,-1.3,-1.9,1.5%,-14.5,-1.7%
CSCC[C@H](NC(=O)N1CCn2c1nc1ccccc12)C(=O)NCc1ccc(F)cc1,-8.5,-1.6,1.0,x,-1.0%,-3.7,8.1%
N#Cc1ccc(NC(=O)CCc2nc3ccccc3s2)cc1,-12.2,-9.5,-0.7,2.2,16.8%,0.2,9.1%
CCN(C[C@H]1N[C@@](C)(C(=O)OC)[C@H]2C(=O)N(Cc3ccccc3)C(=O)[C@@H]12)C(=O)c1ccccc1,-1.4,x,0.0,0.5,0.1%,5.4,x
COc1ccc(CN2C(=O)C(CC(=O)NCc3ccco3)CC(C(=O)N(C(C)C)C(C)C)=C2C)cc1 (stereo not given),0.4,x,-0.6,4.2,2.9%,7.1,x
Cc1nc(/N=C\c2ccc(N(C)C)cc2)sc1C,-9.8,-33.7,-3.0,0.0,0.2%,8.7,x
COc1ccccc1-c1noc2c1C(=O)N(Cc1cn(C3CCCC3)nn1)CC2,x,x,x,4.5,-0.2%,2.7,x
COC(=O)CCCn1cc(CN2CC(N3CCCC3)CS2(=O)=O)nn1 (stereo not given),x,x,x,4.2,-0.5%,-2.8,x
COc1cccc(C2C(C#N)=C(N)SC(c3ccccc3)C2[N+](=O)[O-])c1 (stereo not given),8.7,-3.5,-7.3,x,1.6%,-8.2,16.5%
CC(=O)Nc1ccc(Sc2ncnc3scc(-c4ccccc4)c23)cc1,-15.7,-5.1,0.3,u,1.1%,-5.3,-14.3%
O=C(OCc1cncs1)c1cccs1,-4.6,15.5,-5.3,0.0,0.0%,6.6,9.1%
CCO[C@H]1OC(C(=O)N2CCN(Cc3ccc4c(c3)OCO4)CC2)=C[C@@H](c2csc3ccccc23)[C@@H]1CCCO,-21.6,15.5,-2.2,-21.4,-0.3%,-19.9,-0.1%
CC(C)(C)C(=O)Nc1sc2c(c1C(=O)Nc1ccccn1)CCCC2,-5.7,-14.6,0.2,-23.9,4.4%,5.6,14.0%
Cc1ccc(C(O)(CCN2CCCCC2)c2ccccc2)cc1 (stereo not given),-40.7,7.2,-4.8,x,0.0%,-6.7,6.7%
CC1(C)CC2(CCO1)C(Nc1ccccc1)=NC(=S)N2CC(N)=O (stereo not given),0.2,-1.5,1.6,x,-0.3%,1.2,13.9%
O=C(CSc1nc(=O)n(CCCN2CCOCC2)c2c1CCCC2)Nc1ccc(F)cc1F,-15.2,1.4,-6.7,3.0,0.8%,-2.6,x
CCCC(=O)NC(=S)Nc1ccc(NC(=O)c2cccs2)cc1,-17.9,1.8,-3.4,8.3,1.2%,-2.6,13.3%
O=C(N/C(=C/c1cccnc1)C(=O)N1CCCCCC1)c1cccc(Br)c1,-7.5,-12.8,-0.7,-1.2,0.4%,-7.3,13.6%
COc1ccc(NC(=O)CNS(=O)(=O)c2ccccc2)cc1Cl,8.4,-10.7,3.4,5.2,7.9%[38.3 µM],-1.3,10.6%
CC(=O)Nc1ccc(S(=O)(=O)NC2CC2)cc1,-5.5,27.3,0.9,7.2,-0.6%,-2.2,3.3%
CCOc1ccccc1C(=O)NC(C(=O)N(C)Cc1ccc2c(c1)OCO2)C(C)C (stereo not given),-13.1,-21.9,-2.8,-0.2,0.3%,-0.5,x
O=C(Nc1ccc([N+](=O)[O-])cc1)N1CCN(C(=O)C2CCCO2)CC1 (stereo not given),-5.8,7.0,-0.1,-6.2,1.5%,2.5,13.7%
O=C1C=C(c2cccc(Cl)c2O)C[C@@H](c2ccc3c(c2)OCO3)C1,0.9,-15.6,-8.0,-23.4,0.4%,u,x
CC(C)N1C(=S)N(Cc2ccco2)C(=O)C1CC(=O)Nc1ccccc1 (stereo not given),-4.5,-2.0,-3.6,-11.7,0.7%,-1.6,-38.9%
CCOC(=O)c1c(S(=O)(=O)NCC2CCN(CCc3cccs3)CC2)c(C)n(C)c1C,-59.9,-11.8,-4.4,0.0,-1.6%,0.0,6.7%
CN(C(=O)CSc1nnc(-c2ccccc2)o1)c1c(N)n(Cc2ccccc2)c(=O)[nH]c1=O,-6.3,-0.8,-3.4,-0.1,1.9%,7.0,8.5%
CSC1=NCCN1C(=O)COc1ccccc1,-4.8,9.2,0.4,1.7,0.3%,4.6,0.2%
O=C(N/N=C/c1ccccn1)c1ccc(NC(=O)c2ccc(F)cc2)cc1,-0.5,-12.1,0.6,u,-0.9%,u,-24.1%
CCOc1ccc(/C=C/C(O)=C2/C(=O)NC3(C)CC2c2ccccc2O3)cc1OC (stereo not given),4.3,4.2,2.6,12.0,0.4%,1.5,15.5%
c1ccc(-c2nnc(-c3ccccc3)o2)cc1,-33.4,-25.0,-3.1,4.2,0.1%,5.3,18.2%
CN(CCCN1CCOCC1)C(=O)c1cc(COc2cccc(C(F)(F)F)c2)on1,-15.2,-6.1,5.0,2.1,-2.1%,3.1,1.9%
COc1ccc(-c2cc(=O)oc3cc(OCC(=O)NCC(O)c4ccccc4)ccc23)cc1 (stereo not given),-5.8,8.1,-3.8,6.8,0.8%,0.3,-14.7%
O=C(CSc1nnc(-c2ccc(O)cc2)o1)Nc1cccc(O)c1,0.6,13.6,-4.0,0.0,-0.8%,7.9,-2.7%
CCC(=O)c1ccc(OCCSc2ncccn2)cc1,-2.0,-5.9,1.9,11.4,-1.3%,6.9,7.6%
Cc1ccc(N2C(=O)Nc3ccc(Br)cc3C2(O)C(=O)NCCN(C)C)cc1C (stereo not given),-4.6,9.7,-3.4,-0.4,1.2%,10.8,4.3%
C=CCN1c2ccccc2C(=O)CS1(=O)=O,0.7,22.6,-0.6,-4.3,2.7%,8.7,x
COC(=O)CCCCCN1C(=O)NC(c2ccccc2)C(C(=O)OCc2ccccc2)=C1C (stereo not given),-19.9,5.7,-0.5,0.0,2.9%,1.3,-2.1%&7.8%
Fc1ccccc1CSc1ncn[nH]1,-3.6,-4.2,-0.6,-3.2,-0.7%,7.8,4.3%
O=C(O)c1ccnc(Cl)c1,-7.8,u,1.2,6.3,-0.2%,3.8,9.3%
Cc1cc(C(=O)Oc2ccccc2C(=O)O)c(C)o1,-8.3,-3.0,-2.4,-3.7,1.0%,4.2,10.8%
O=C(NCCc1nccs1)C1CCC(=O)N(Cc2cccc(C(F)(F)F)c2)C1 (stereo not given),-9.8,1.0,-0.9,-5.6,0.4%,3.6,15.4%
O=C(COC(=O)COc1ccccc1)Nc1ccc2c(c1)OCCO2,7.5,x,5.3,2.2,1.0%,-1.0,x

# Screens from PubChem.
